# High-throughput results (PubChem)
# VDR inhibitor – blocks the human vitamin D receptor | P11473 | VDR-SRC2-3 peptide fluorescence polarization, 2 h | Potency, µM, without a hit: max response, negative = inhibition, actives largely listed as inhibitors | 400,000 compounds, 0.93% hits | AID 504847; active = well fitted inhibition curve with a large enough effect; inconclusive = small, poorly fitted or top-dose-only effect, or another doubt; inactive = no such curve, though single readings can be large or run the other way; also: series mostly up to about 120 µM
# Target sequence (P11473 whole entry, looked up): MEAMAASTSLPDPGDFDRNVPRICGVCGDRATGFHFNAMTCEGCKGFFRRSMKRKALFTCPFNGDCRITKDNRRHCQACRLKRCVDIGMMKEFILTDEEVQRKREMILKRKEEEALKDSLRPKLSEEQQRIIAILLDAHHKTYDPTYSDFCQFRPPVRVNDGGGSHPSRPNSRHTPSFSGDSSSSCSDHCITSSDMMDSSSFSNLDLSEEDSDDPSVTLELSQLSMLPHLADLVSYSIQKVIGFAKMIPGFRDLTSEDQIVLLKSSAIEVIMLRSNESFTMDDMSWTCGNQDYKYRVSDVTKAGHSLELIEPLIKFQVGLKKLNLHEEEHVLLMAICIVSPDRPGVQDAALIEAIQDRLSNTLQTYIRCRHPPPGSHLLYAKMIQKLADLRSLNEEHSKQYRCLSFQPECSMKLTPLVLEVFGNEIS
#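 Inhibition of the VDR/SRC2-3 peptide interaction is quantified by fluorescence polarization. Compounds (23 nl, pintool) incubate with the reagents for 2 hours at ambient room temperature.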
# Numbers without * were called inactive; u = inconclusive; [ ] = remark or other dose. % is scaled to controls: 0 for no effect and ±100 for the full control effect; potency is read from the fitted curve at half-maximal effect.
SMILES,VDR inhibitor
COc1cccc(C(=O)NNC(=O)C(=O)Nc2cccc3ccccc23)c1,2%
CNc1cc(N2CCCCCC2)ccc1[N+](=O)[O-],-5%
CC(C)OC(=O)c1c(N)sc2c1CCCC2,u
CCc1nnc2sc(-c3ccc(NC(=O)c4ccco4)cc3)nn12,-13%
CCCC1(C)C(C#N)C(=O)NC(=O)C1C#N (centres undefined),0%
COc1ccccc1N1CCN(c2cc(N3CCCC3)nc(C)n2)CC1,3%
CC(C)c1nnc(NC(=O)CCN2C(=O)c3ccccc3C2=O)s1,3%
CCOc1ccc(-n2c(C)nc3cc(C(=O)NCc4ccc(C)cc4)ccc32)cc1,9%
Cc1ccc(S(=O)(=O)N/N=C/c2ccc(OCC(=O)N3CCOCC3)cc2)cc1,8%
COc1cc(NC(=O)Cn2cc(S(=O)(=O)c3ccccc3)c(=O)c3ccccc32)cc(OC)c1,-16%
Cc1c(C)n2c(SCC(=O)N3CC(C)OC(C)C3)nnc2[nH]c1=O (centres undefined),9%
O=C(c1cccc(S(=O)(=O)NCc2ccccc2)c1)N1CCCC(C(F)(F)F)C1 (centres undefined),6%
Cc1cc(-c2n[nH]c(=S)n2/N=C/C=C/c2ccccc2)n[nH]1,-9%
COc1cc(OC)c(OC)cc1/C=C1\SC(N2CCCCC2)=NC1=O,36%[activator]
COc1ccc(S(=O)(=O)NCC(=O)NCc2cc(=O)n(C)c(=O)n2C)cc1,13%
CC1=C(C(=O)N2CCOCC2)C(c2ccc(C)cc2)NC(=S)N1 (centres undefined),3%
Cc1ccccc1-c1cc(C(=O)NCc2ccco2)n(CC2CC(c3cccnc3)=NO2)n1 (centres undefined),-9%
COc1ccccc1N1CCN(C(=O)c2ccc(CN3CCOCC3)cc2)CC1,-9%
COc1cccc(CNC(=O)C2CCCN(C(=O)c3ccc(Cl)cc3)C2)c1 (centres undefined),-13%
O=CN1c2ccccc2CSc2ccccc21,-12%
CC1(c2nnc(-c3ccc(F)cc3)o2)CC(c2cccc(Cl)c2)=NO1 (centres undefined),4%
Cc1cc(-c2nc3ncccc3o2)ccc1NC(=S)NC(=O)c1ccco1,-15%
Cc1ccnc(NC(=O)C2CCN(S(=O)(=O)c3cccc4nonc34)CC2)c1,9%
CCOc1ccc(OCC)c(NC(=O)CN2CCN(C(=O)c3ccco3)CC2)c1,-17%
C/C(=N\NC(=O)CN1CCCCC1)c1ccccc1O,-4%

# Quoted at random: two records from the list, in no set order.
SMILES,VDR inhibitor
COc1cc(OC)c(OC)cc1/C=C1\SC(N2CCCCC2)=NC1=O,36%[activator]
Cc1ccccc1-c1cc(C(=O)NCc2ccco2)n(CC2CC(c3cccnc3)=NO2)n1 (centres undefined),-9%

# Continuation:
SMILES,VDR inhibitor
CC1CCCN(C(=O)c2ccc([N+](=O)[O-])o2)C1 (centres undefined),15%
COc1cc(/C=N/n2cnc3scc(-c4cccs4)c3c2=O)cc(OC)c1OC,-25%
Cc1ccc(/C=N/N2CCN(Cc3ccc(C)cc3)CC2)cc1,-2%
O=C(c1ccccc1)c1ccc(OCC(O)CN2CCCC2)cc1 (centres undefined),-15%
CCOC(=O)c1c(C)c(C(=O)Nc2cc(F)ccc2F)c(C)n1C,-14%
C[N+](C)(CC#Cc1ccccc1)CC(=O)c1ccc(Cl)cc1,-19%
CCOC(=O)c1c(C)[nH]c(N=Nc2ccc(C)cc2)c1C,0%
COc1ccc(OC)c2[nH]c(=O)c(CCNC(=O)C(C)(C)C)cc12,-5%
CCOC(=O)CSc1nc2cc3c(cc2c(=O)n1Cc1ccc(C(=O)NCCc2ccc(OC)c(OC)c2)cc1)OCO3,2%
CNC(=S)NNC(=O)c1c(C)nc2cc(C)ccn12,-2%
O=C1OC(c2ccccc2)Cc2cc(C(=O)N3CCN(c4ccc(F)cc4)CC3)ccc21 (centres undefined),-3%
COc1cccc2cc(C(=O)OCC(=O)N3CC(C)OC(C)C3)c(=O)oc12 (centres undefined),-1%
CN(CC(=O)Nc1cccc(F)c1)C(=O)CCC1CCCCC1,-4%
O=c1c2ccccc2n(CC(O)CN2CCOCC2)c2ccccc12 (centres undefined),-6%
O=C(CCC(=O)N1CCc2ccccc2C1)N1CCN(S(=O)(=O)c2ccccc2)CC1,4%
COc1cc(NC(=O)c2ccccc2)cc(OC)c1,-1%
CCc1ccc(NC(=O)COC(=O)c2nc3nc(C)cc(C)n3n2)cc1,2%
COc1ccc(-n2cnnc2SCC(=O)NC2CCS(=O)(=O)C2)cc1 (centres undefined),-1%
CCCC1CC(C)(/C(C)=N\NC(N)=S)OC1=O (centres undefined),-3%
Cc1ccc(S(=O)(=O)NCCCCCC(=O)Nc2ccccc2C)cc1,4%
Cc1cc(N)n2nc(C)c(-c3ccccc3)c2n1,2%
Cc1cc(C)c(S(=O)(=O)Cc2ccccc2)c(=O)[nH]1,21%
CCN(Cc1ccncc1)C(=O)c1cc(COc2ccc(F)cc2F)on1,-18%
COc1ccccc1NC1C=CS(=O)(=O)C1 (centres undefined),-4%
COc1cc(/C=N/NC(=S)NC2CC3CC2C2C=CCC32)ccc1O (centres undefined),3%
# Following part
SMILES,VDR inhibitor
O=[N+]([O-])c1ccc(N=Nc2c(Cl)cc(O)cc2Cl)cc1,-22%
CCCCN(C(=O)C1CC(=O)N(Cc2ccc(C)cc2)C1)c1c(N)n(CC(C)C)c(=O)[nH]c1=O (centres undefined),-12%
COc1ccccc1Nc1ncnc2sccc12,19%
CCC12CN3CC(C)(CN(C1)C3c1c(C)n(C)c3ccccc13)C2=O (centres undefined),16%
CC(C)N(C(=O)Cn1cnc2c(cnn2-c2ccccc2Cl)c1=O)C(C)C,6%
O=C(c1ccco1)N1CCC[C@@]2(CCN(c3ncccn3)C2)C1,-3%
Cc1ccccc1NC(=O)Cn1c(C)nc2ccc(NC(=O)C3CC3)cc2c1=O,-10%
COc1cccc2sc(NC(=O)CS(=O)(=O)c3ccc(C)cc3)nc12,7%
O=C(Nc1ccccc1C(=O)O)C1=NN=CC1,-11%
Cc1ccc(NC(=O)Cn2nnc(C(=O)NCCc3ccccc3)c2N)c(C)c1,u
COCCN(C(=O)CSc1nc2ccccc2c(=O)n1CC(C)C)c1c(N)n(Cc2ccccc2)c(=O)[nH]c1=O,-15%
C=CCn1c(CCC(O)CCCCC)n[nH]c1=S (centres undefined),0%
Oc1ccccc1N1CCN(Cc2ncc(-c3ccccc3)o2)CC1,-3%
Cc1cc(F)ccc1Oc1cc(NN2CCCCC2)c([N+](=O)[O-])cc1[N+](=O)[O-],4%
CN(C)c1cccc(C(=O)N2CCC(n3nccc3NC(=O)C3CCOC3)CC2)c1 (centres undefined),48%[activator]
Cc1cc(C)c(S(=O)(=O)N2CCCCC2)c(C)c1N(C)S(=O)(=O)c1ccc(Cl)cc1,-15%
COc1ccc(-c2cc(=O)c3ccccc3o2)cc1OC,-27%
Cn1nc(C(=O)Nc2cc(F)ccc2F)c2c1-c1ccccc1SC2,6%
Cc1c(C2(c3c(C)n(C)n(-c4ccccc4)c3=O)C(=O)Nc3ccc(F)cc32)c(=O)n(-c2ccccc2)n1C,0%
CCCN(CC1CC1)C(=O)CCc1nnc(CCc2c[nH]c3ccccc23)o1,6%
O=C(CSc1nc2c(oc3ccccc32)c(=O)n1Cc1ccco1)Nc1cccc(Cl)c1,-14%
N#CC1=CN(Cc2ccccc2)C=C(/C=N/Nc2ccccc2)C1,-6%
CCC(=O)Nc1ccc(S(=O)(=O)N2CCN(c3ccc(F)cc3)CC2)cc1,-13%
Cc1cccc(NC(=O)CN2CCc3cc4c(cc3C2C)OCCCO4)c1 (centres undefined),-12%
CCOC(=O)N1C2=NC(C(=O)OC)=C(C(=O)OC)[C@@H]3Nc4ccccc4[C@]23C[C@H]1C(=O)OC,-11%
# Further entries follow:
SMILES,VDR inhibitor
COC(=O)NNC1=CC(=O)CC(C)(C)C1,-17%
Cc1cccc(C)c1OCc1nnc(SCC(=O)Nc2ccc(N3CCOCC3)cc2)o1,3%
COc1ccc(-c2cc(C(=O)N(C)CC(=O)Nc3cccc(F)c3)c3ccccc3n2)cc1,-10%
CCCNC(=O)C(Cc1cccc(Cl)c1)NC(=O)c1ccccc1 (centres undefined),2%
COc1ccccc1NC(=O)Nc1ccc(-n2ccc(C(F)(F)F)n2)cc1,-9%
COCC(C)Nc1ncnc2c1cnn2-c1ccc(C)c(C)c1 (centres undefined),0%
Cc1ccc(C(C)C)c(OCC(=O)NCC2(N(C)C)CCCCC2)c1,1%
Cc1ccc(C)c(NC(=S)N/N=C2/CCCCc3ccccc32)c1,-21%
O=C(Nc1ccc2c(c1)OCO2)C1CCN(C(=O)c2ccc(Br)cc2)CC1,10%
CCC1(c2ccc(F)cc2)NC(=O)N(CC(=O)N(CCC#N)c2ccccc2)C1=O (centres undefined),-1%
COc1ccc(C(=O)COC(=O)c2ccn(C)n2)cc1,1%
COc1cccc(C2c3[nH]c4ccccc4c3C[C@H]3C(=O)N(c4ccccc4C(=O)NCCCN4CCOCC4)C(=O)N23)c1 (some centres undefined),-1%
CSc1sc(C(=O)NNC(C)=O)c2c1C1(CCC2)SCCS1,-21%
COc1ccc(OC)c(C2CC(=O)NC(SC)=C2C#N)c1 (centres undefined),-8%
COc1ccc(N(CC(=O)NCc2ccccc2C)S(=O)(=O)c2ccccc2[N+](=O)[O-])c(OC)c1,16%
COC(=O)c1ccc(/C(O)=C(\C#N)c2nc3ccccc3s2)cc1,-5%
CC(CCc1ccccc1)NC(=O)c1ccc(C(=O)NC(C)CCc2ccccc2)cc1 (centres undefined),12%
CCCCC(=O)Nc1ccc2c(c1)oc1ccccc12,-9%
CCc1ccc(S(=O)(=O)/N=C2\C=C(NS(=O)(=O)c3ccccc3)C(=O)c3ccccc32)cc1,u
CCOc1ccc(C(=O)Nc2ccc3nn(-c4ccc(OC)c(Cl)c4)nc3c2)cc1,7%
Cc1c(Br)c([N+](=O)[O-])nn1C(C)C(=O)Nc1ccc2c(c1)OCO2 (centres undefined),7%
CCOC(=O)c1c(C)n(C)c2ccc(OC(C)C(=O)OC)cc12 (centres undefined),-4%
COc1ccc(-c2nnc(-c3cccs3)o2)cc1OC,-6%
CC(OC(=O)c1ccc2c(=O)n3c(nc2c1)CCC3)C(=O)Nc1ccc(C(N)=O)cc1 (centres undefined),-8%
CCS(=O)(=O)N1CCC(C(=O)NCc2cc(OC)ccc2OC)CC1,8%
# Further compounds follow:
SMILES,VDR inhibitor
Cc1cc(C)cc(NC(=O)c2sc3nc[nH]c(=O)c3c2C)c1,5%
CCOC(=O)N1CCN(c2c(N3CCN(c4cccc(C(F)(F)F)c4)CC3)c(=O)c2=O)CC1,-7%
Cc1cc(=O)oc2cc(OCC(=O)N3CCC(C(N)=O)CC3)ccc12,-8%
CCCn1nc(C(=O)NNC(=O)CSC(C)C(=O)Nc2cc(C)on2)c2ccccc2c1=O (centres undefined),-5%
Cc1ccc2c(COC(=O)c3c(C)noc3C)cc(=O)oc2c1,4%
CCCCCN(C(=O)CCC(=O)OC(C)C(=O)NC1CCCCC1)c1c(N)n(CCCC)c(=O)[nH]c1=O (centres undefined),-4%
Fc1cccc(Cl)c1CNCc1ccccc1Cl,4%
Cc1ccc(CNC(=O)c2cc(C)nc3c2c(C)nn3-c2ccc(C)cc2)cc1,17%
O=C(CCCn1cnc([N+](=O)[O-])n1)Nc1ccc(Cl)c(Cl)c1,0%
CC(=O)C1=C(O)C(=O)N(c2cccnc2)C1c1ccc(Cl)cc1 (centres undefined),1%
CCCNC(=O)NC(=O)COC(=O)CNS(=O)(=O)/C=C/c1ccccc1,5%
Cc1cccc(CCNC(=O)CN(C)S(=O)(=O)c2ccc3c(c2)c(=O)n(C)c(=O)n3C)c1,17%
Nc1ncnc2nc(SCC(=O)Nc3cccc(C(F)(F)F)c3)[nH]c12,13%
COCCNc1ccc(N2C(=O)CCCC2=O)cc1[N+](=O)[O-],12%
COc1cccc(NC(=O)CN(C)S(=O)(=O)c2ccc3c(c2)NC(=O)CS3)c1,-2%
COc1ccc(-c2nnc(OCc3nc4ccccc4n3C)c3ccccc23)cc1,u
COc1ccc(/C=N/NC(=O)CN(Cc2ccccc2)S(=O)(=O)c2ccc3c(c2)OCCO3)cc1,-7%
COCCNC(=O)CSc1nnc2[nH]c(=O)cc(C)n12,16%
OCCN(C=NC1=NN(c2cccc(C(F)(F)F)c2)CC1)CCO,6%
CCCc1c(C(=O)NNc2cc(C(F)(F)F)ccc2Cl)cnn1-c1ccccc1,-6%
COC1C=CO[C@@]2(C)Oc3c(C)c(O)c4c(O)c(c5c(nc6cc(C)ccn65)c4c3C2=O)NC(=O)/C(C)=C\C=CC(C)C(O)[C@@H](C)C(O)C(C)[C@@H](OC(C)=O)C1C (some centres undefined),u
COCCCn1c(-c2ccsc2)nc2c1c(=O)[nH]c(=O)n2Cc1ccccc1,-9%
CCc1ccc(Cn2nnc(C(=O)NCc3ccccc3OC)c2N)cc1,15%
Cc1ccc(-n2ncc3c(=O)[nH]c(SCC(=O)N4CCCc5ccccc54)nc32)cc1,7%

# 2 entries from above, field by field:
CCCCCN(C(=O)CCC(=O)OC(C)C(=O)NC1CCCCC1)c1c(N)n(CCCC)c(=O)[nH]c1=O (centres undefined)
  VDR inhibitor: -4%

CCOC(=O)N1CCN(c2c(N3CCN(c4cccc(C(F)(F)F)c4)CC3)c(=O)c2=O)CC1
  VDR inhibitor: -7%

# 4 entries out of the list above, sorted by the value under VDR inhibitor, lowest first:
SMILES,VDR inhibitor
CCOC(=O)N1CCN(c2c(N3CCN(c4cccc(C(F)(F)F)c4)CC3)c(=O)c2=O)CC1,-7%
CCCn1nc(C(=O)NNC(=O)CSC(C)C(=O)Nc2cc(C)on2)c2ccccc2c1=O (centres undefined),-5%
Cc1cc(C)cc(NC(=O)c2sc3nc[nH]c(=O)c3c2C)c1,5%
Cc1ccc(CNC(=O)c2cc(C)nc3c2c(C)nn3-c2ccc(C)cc2)cc1,17%

# Only part of the results is shown; rates above refer to the full screens.
